Compound activity from PubChem.
HSD17B inhib: qHTS Assay for Inhibitors of HSD17B4, hydroxysteroid (17-beta) dehydrogenase 4. 3-hydroxyacyl-CoA dehydrogenase type-2 (Homo sapiens), Q99714. 75,000 tested, 7.6% active. Potency, µM (doses to about 57.1 µM), for the others: top-dose activity change, negative = inhibition, usual class: inhibitors. recombinant HSD17B10, NADH fluorescence kinetic; many of its hits are not listed in these tables; active means well fitted inhibition curve with a large enough effect; inconclusive means small, poorly fitted or top-dose-only effect; inactive means no such curve, though single readings can be large or run the other way;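 further: the protocol describes HADH2 (HSD17B10) and not the HSD17B4 of the title; nearly all actives have a fitted effect of over 70% in size; most hits overshoot -100% by far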
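Enzyme plus compound, 15 min room temperature; substrate mix added (NAD+ 1 mM, beta-hydroxybutyryl-CoA 90 uM final); plates read kinetically for NADH fluorescence. HADH2 was His-tagged, E. coli-derived, 20 nM.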
Numbers without * were called inactive; ? = inconclusive; & = joins results of further samples; [ ] = remark or other dose. On the % scale 0 is the no-effect control and ±100 the full control effect; potency means the concentration at half of the fitted maximal effect.

SMILES	HSD17B inhib
COc1ccccc1Nc1nc(C)cc(C)c1C(N)=O	-1%
O=C(Cn1ccsc1=NC(=O)c1ccco1)c1ccccc1	3%
CCN(CC)CCCN1C(=O)C(=O)/C(=C(/O)c2ccc3c(c2)OCCO3)C1c1ccco1 (stereo not drawn)	-15%
CCC(C)[C@H](NC(=O)NCC1CCCO1)C(=O)OC (stereo partly drawn)	5%
CCOC(=O)N1CCC(NC(=O)Cn2c3ccccc3c3cn[nH]c(=O)c32)CC1	20µM*
COc1ccccc1CN1CC2(CCN(S(=O)(=O)c3ccccc3)CC2)C1	-8%
CN1CC(=O)N(CC(=O)Nc2ccc(F)cc2)c2ccccc2C1=O	2%
N#Cc1ccccc1OC[C@H](O)CNCCNC(=O)Nc1ccccc1	3%
CCN1C(=O)[C@H]2[C@H]3[C@H](O)[C@H](O)C/C(=N/OC[C@@H](O)COCc4ccco4)[C@@H]3CC[C@@H]2C1=O	3%&7%[11.4 µM]
CC1CCN(C(=O)CSc2nnc(CSc3ncccn3)n2C)CC1	4%
Cc1ccc(NC(=O)CSc2n[nH]c(-c3ccncc3)n2)cc1C	-1%&-4%
CC(=O)N[C@@H](CC(C)C)C(=O)O	0%[25.6 µM]
Cc1ccc2c(c1)c(C)c(C)n2CC(O)CN1CCOCC1 (stereo not drawn)	?
O=C(CN1CCC(n2nnc3cc(F)ccc32)CC1)N1CCCc2ccccc21	8%
COC(=O)[C@@H]1C[C@H]1[C@@H](NC(C)=O)c1ccccc1	0%
COc1ccc(C(=O)CSc2nnc(CNc3ccc(C)cc3C)n2Cc2ccco2)cc1	-25%
COC(=O)NC(CC(C)=O)c1ccco1 (stereo not drawn)	7%[11.4 µM]
O=C(O)CCC(=O)N1CCc2cc(S(=O)(=O)N3CC=C(c4ccccc4)CC3)ccc21	?
Cc1cccc(N(CC(=O)NC2CCCC2)C(=O)CCCC(=O)Nc2ccccn2)c1	-1%
O=C(Nc1ccc(-n2nncc2-c2ccco2)cc1)c1cccc(F)c1	3%

Of the compounds above, 2 contain an NH in an aromatic ring:
SMILES	HSD17B inhib
CCOC(=O)N1CCC(NC(=O)Cn2c3ccccc3c3cn[nH]c(=O)c32)CC1	20µM*
Cc1ccc(NC(=O)CSc2n[nH]c(-c3ccncc3)n2)cc1C	-1%&-4%

(continued)
SMILES	HSD17B inhib
COc1ccc(Cl)cc1NC(=O)CN(c1ccccc1)S(=O)(=O)N(C)C	3%
Cc1csc(SCC(=O)N2CCN(S(=O)(=O)c3ccc(Cl)cc3)CC2)n1	5%
COC(=O)c1ccc(OCC(O)Cn2nnc3ccccc32)cc1 (stereo not drawn)	4%
CC(=O)c1cccc(NC(=O)Cn2cc3c(n2)CCCC3)c1	5%
O=C(CCc1nc2ccccc2[nH]1)Nc1ccc2c(c1)OCO2	-14%
CC1CCc2c(C(=O)Oc3cccc(-n4cnnn4)c3)csc2C1 (stereo not drawn)	-11%
CCOC(=O)C1CCN(C(=O)CNS(=O)(=O)c2ccc(Br)s2)CC1	0%
CC1(C)Oc2ccc(C(=O)N3CCCC3)cc2N(CC(=O)NCc2ccccc2)C1=O	-2%
Cc1ccc(NC(=O)c2cnccn2)c(OC(F)F)c1	1%
CCC(C)NC(=O)C1c2cc(OC)c(OC)cc2C(=O)N(C)C1c1ccc(OC)cc1 (stereo not drawn)	0%
CC1(C)Cc2c(c(N3CCCC3)nc3sc4c(N5CCN(CCO)CC5)ncnc4c23)CO1	5%
CCc1noc(C)c1C(=O)N1CC(C)OC(C)C1 (stereo not drawn)	7%
O=C(Nc1ccccc1C(F)(F)F)N1CCC(N2CCCCC2)CC1	4%
CCn1c(SCC(=O)c2ccc(OC)cc2)nnc1C(C)NC(=O)c1ccc(OC)cc1 (stereo not drawn)	2%
COc1ccc(C2C(C(=O)Nc3ccccn3)=C(C)Nc3ncnn32)c(OC)c1 (stereo not drawn)	-6%
CCn1nnnc1Oc1ccc(Cl)cc1	7%
CC(C)(Sc1ccc(CCN(CCCCC2CCCCC2)C(=O)NC2CCCCC2)cc1)C(=O)O	20µM*
O=S(=O)(c1ccccc1)c1cccc(S(=O)(=O)N2CCCCC2)c1	0%
CC(C)OCCCNC(=O)CCN1C(=O)COc2ccccc21	0%
CCOC(=O)CSc1nnc(CNC(=O)c2cccs2)n1Cc1ccccc1	-7%
COc1cc2c(C#N)c(N3CCN(c4ccccc4OC)CC3)nc(N)c2c(N)n1	25µM*
CCOC(=O)c1sc2ncnc(N3CCN(C(=O)OCC)CC3)c2c1C	-3%
Cc1ccc(NC(=O)C(C)Sc2nnc(-c3cccnc3)o2)cc1 (stereo not drawn)	3%
CC(C)C1COc2cc3oc(=O)ccc3cc2O1 (stereo not drawn)	32µM*
CN1CCN(c2nc(Nc3cccc(C(F)(F)F)c3)nc(N3CCOCC3)n2)CC1	5%
O=C(Nc1ccccc1N1CCCCC1)c1cccc(F)c1	-5%
CCOC(=O)c1nnn(CC(=O)Nc2cc(F)ccc2F)c1C(=O)OCC	7%
OCc1cn(-c2ccccc2)nc1-c1cccnc1	8%
CCOc1cc(N2CCOCC2)c(OCC)cc1NC(=O)c1nc2nc(C)cc(C)n2n1	-2%
COc1ccc(C(=O)N2CCCC2)cc1S(=O)(=O)N1CCOCC1	0%
CCOC(=O)c1c(NC(=O)COC(=O)c2c(C)noc2C)sc2c1CCC2	4%
COCCn1c(Sc2ccc(C)cc2)nc2c1c(=O)[nH]c(=O)n2C	13%
COc1cc(C(=O)OCC(=O)N(C)Cc2ccccc2)cc(OC)c1OC	-12%
O=C(NCCCn1ccnc1)c1noc2c1CCc1ccccc1-2	-6%
O=C(Cc1cc(=O)[nH]c(=O)[nH]1)NCC1CCCO1 (stereo not drawn)	?
CSc1nc2c(c(-c3ccc(O)cc3)c1C#N)CCC2	18%
COc1ccccc1NC(=O)CCN1CCCCCC1	8%
Br/C(=N\Nc1nn[nH]n1)c1ccncc1	1%[11.4 µM]
Cc1ccc(S(=O)(=O)N2CCCC2C(=O)OCC(=O)Nc2ccc3c(c2)OCO3)cc1 (stereo not drawn)	1%
O=C1CCCC2=C1C(c1ccc3c(c1)OCO3)c1c([nH]n(-c3ccccc3)c1=O)N2 (stereo not drawn)	-14%
Cc1nc(N2CCOCC2)c2nc(-c3ccccc3)n(CCCN(C)C)c2n1	25µM*
O=C(NCCc1ccccc1)c1ccc(=O)oc1	133%[activator]
CCCN1CN(Cc2ccco2)c2nc3ccccc3n2C1	-1%
CCOC(=O)c1ccccc1N1C(=O)CSC1=S	205%[activator]
CC1CC(=O)c2cnc(Nc3cccc(C(F)(F)F)c3)nc2C1 (stereo not drawn)	-2%
Fc1cc2nc(-c3ccncc3)[nH]c2cc1F	25µM*
CCc1cc(=O)oc2cc(C)c3c(C)coc3c12	6.3µM*
Cn1c(CNC(=O)Nc2ccccc2)nnc1SCc1ccccc1	4%
COC(=O)c1ccc(OC)c(CSc2nnc(COc3cccc(C)c3)o2)c1	0%
COC(=O)c1ccc(-n2nnnc2SCC(=O)NCc2cccc(C(=O)O)c2)cc1	5%
BrC(Br)C(Br)Br	4%
Cc1csc2nc(CNC(=O)C3CC=CCC3C(=O)O)cn12 (stereo not drawn)	12%
CNC(=O)c1cc2ccc(OC)cc2oc1=O	25µM*
Cc1ccc(S(=O)(=O)N2CC(=NO)C2)cc1	8%
Cn1c(CSCc2ccc(F)cc2)nnc1SCC(=O)Nc1nccs1	14%
COc1ccc(C(=O)Nc2cccc(OC)c2)cc1	0%
Cc1cc(=O)n2c(-c3ccccc3C)n[nH]c2n1	-14%
O=c1cnc2cnc(Oc3ccccc3)nc2n1CCc1ccccc1	3%
COC(=O)/C=c1\sc2ncnn2c1=O	13%
CCN(C(=O)c1ccc(C(C)(C)C)cc1)c1nnc(Cn2nnc3ccccc32)s1	8%

Next section (3 carried over from the part before).
SMILES	HSD17B inhib
O=c1cnc2cnc(Oc3ccccc3)nc2n1CCc1ccccc1	3%
COC(=O)/C=c1\sc2ncnn2c1=O	13%
CCN(C(=O)c1ccc(C(C)(C)C)cc1)c1nnc(Cn2nnc3ccccc32)s1	8%
CN(Cc1ccco1)c1ccnc(-c2cccc(NS(C)(=O)=O)c2)n1	3%
Cc1noc(C)c1C(=O)N1CCC2(CCCN(c3ccccc3)C2)CC1	2%
O=C(Cn1cnc2c(nnn2Cc2ccccc2)c1=O)NCC1CCCO1 (stereo not drawn)	8%
CCOC(=O)N1CCN(S(=O)(=O)c2ccc3[nH]cc(C(=O)O)c(=O)c3c2)CC1	13µM*
COCCCNC(=O)CN(c1ccc(Cl)c(Cl)c1)S(C)(=O)=O	6%
COc1ccc(C(=O)NCC(=O)OC2CCCCC2=O)cc1 (stereo not drawn)	15%
COc1ccc(OC)c(S(=O)(=O)NCc2csc(-c3ccccc3)n2)c1	-2%
COC(=O)CN(Cc1ccccc1)S(=O)(=O)c1ccc(OC)c(OC)c1	2%
O=C(O)c1ccc(NS(=O)(=O)c2cccc3nsnc23)cc1	-1%
CCCS(=O)(=O)N1CCCC(C(=O)NCCCN2CCN(c3cccc(Cl)c3)CC2)C1 (stereo not drawn)	4%
N#CCCCSc1nnc(-c2ccccn2)o1	3%
O=C(c1ccc(Cn2cc(Br)cn2)cc1)N1CCN(c2ccccc2)CC1	-14%
NS(=O)(=O)c1ccc(NS(=O)(=O)c2cccs2)cc1	8%
CCCCOc1ccc(-c2ncc(Cl)cn2)cc1	?
O=C(NC1CCCCC1)C1CCCN1S(=O)(=O)c1cccc2nsnc12 (stereo not drawn)	-14%
O=C(COC(=O)c1cccnc1)c1ccc(Cl)cc1	15%
COc1cc2cc(CN(CCCO)S(=O)(=O)c3ccccc3Cl)c(=O)[nH]c2cc1OC	?
COc1ccccc1N1CCN(CCN2C(=O)c3ccccc3C(C)(C)C2=O)CC1	-14%
FC(F)(F)c1cccc(N2CCN(c3ccc4nnc(-c5ccccc5)n4n3)CC2)c1	-17%
CCC(C)NC(=O)C1CCN(S(=O)(=O)c2cccc3cccnc23)CC1 (stereo not drawn)	2%
COc1cccc(-n2c(=O)[nH]cc(C(=O)Nc3ccc4c(c3)OCCO4)c2=O)c1	-5%
N#Cc1ccccc1Sc1ccccc1C(=O)N1CCOCC1	-2%
CCOc1cccc(/C(O)=C2/C(=O)C(=O)N(Cc3ccco3)C2c2ccncc2)c1 (stereo not drawn)	?
CN(CC(=O)Nc1ccncc1)S(=O)(=O)c1ccc(Cl)cc1	9%
O=C(O)CN1C(=O)C2(OCCCO2)c2ccccc21	5%
CCOC(=O)c1cnc(SCC(=O)c2ccccc2)nc1N	1%
COC(=O)c1ccc(C(NC(=O)OCc2ccccc2)/C(=C/[C@@H](C)C(=O)NCCc2c[nH]c3ccccc23)c2cccnc2)cc1 (stereo partly drawn)	2%
O=C(c1cccnc1)N1CCc2ccccc2C1	4%
CN1C(=O)c2cccc3c(S(=O)(=O)Nc4ccccn4)ccc1c23	3%
Nc1ccc(CCc2nc3ccccc3o2)cc1	6%
CCOc1ccc2[nH]c(=O)c(=O)[nH]c2c1	?
COC(=O)CC1=COC2OCC3=CC[C@@H]1C32 (stereo partly drawn)	3%[11.4 µM]
COc1ccc(OCC(O)CN2C(=O)c3ccccc3S2(=O)=O)cc1 (stereo not drawn)	-5%
O=C(NCCCCNC(=O)c1c(F)c(F)c(F)c(F)c1F)c1c(F)c(F)c(F)c(F)c1F	2%
CCCCN(C(=O)Cn1nnc2ccccc21)C(C(=O)NCc1ccco1)c1ccncc1 (stereo not drawn)	3%
CC1CCC2(CC1)NC(=O)N(CC(=O)NC(=O)NC1CCCC1)C2=O (stereo not drawn)	16%
CCCC(=O)Nc1cc(OC)c(NC(=O)NC2CCCCC2)cc1OC	7%
Cc1csc(-c2coc3cc(O)cc(C)c3c2=O)n1	-10%
Cc1ccc2nc(-c3cccnc3)oc2c1	25µM*
NCCCCCCNS(=O)(=O)c1cccc2ccccc12	?
COc1ccc(OC)c(C(=O)CN2C(=O)NC(C)(c3ccccc3)C2=O)c1 (stereo not drawn)	1%
FC(F)(F)c1ccccc1-c1nc(Nc2ccncc2)c2ccccc2n1	32µM*
CCOC(=O)c1cnc(-n2nc(C)cc2C)nc1NCCc1ccccc1	25µM*

Four of the compounds above, field by field:
COc1ccc(OC)c(C(=O)CN2C(=O)NC(C)(c3ccccc3)C2=O)c1 (stereo not drawn)
  HSD17B inhib = 1%
COC(=O)CC1=COC2OCC3=CC[C@@H]1C32 (stereo partly drawn)
  HSD17B inhib = 3%[11.4 µM]
FC(F)(F)c1ccccc1-c1nc(Nc2ccncc2)c2ccccc2n1
  HSD17B inhib = 32µM*
COc1ccc(OCC(O)CN2C(=O)c3ccccc3S2(=O)=O)cc1 (stereo not drawn)
  HSD17B inhib = -5%

The list is partial; count on the stated rates, not on these rows.
